# CtBP-E1A inh – blocks the CtBP interaction with E1A. AlphaScreen GST-E1A/His-CtBP binding, 1536-well; stronger effect = lower value; control for the full effect not named in the record. activity change, % (concentration not given with the values). 0.49% of 340,000 active. AID 651724; in the data active means activity change below about -65%; inconclusive means about -30% to -65%; inactive means above about -30%; note: % is set by controls: 0 for no effect and ±100 for the full control effect
#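 Protein mix (5X: 125 nM each GST-E1A, His-CtBP) was incubated with pinned compound 2 h at 37 deg C in dark, in 50 mM Tris pH 8.0 buffer with 300 mM NaCl. Glutathione donor and nickel acceptor beads followed; AlphaScreen signal read after 1 h.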
# D2 ag – human D2 receptor agonism in beta-arrestin assay; P14416; DiscoveRx PathHunter D2 beta-arrestin, luminescence, 90 min; 100% = 57 uM dopamine signal; activation, % (no concentration beside the values); 0.084% of 360,000 active; AID 624465; in the data active = activation above about 40%; inconclusive = about 15% to 40%; inactive = below about 15%; note: compound concentration not given in the record; the text of the record calls up to 30% inactive
# Target sequence (P14416 whole entry, looked up): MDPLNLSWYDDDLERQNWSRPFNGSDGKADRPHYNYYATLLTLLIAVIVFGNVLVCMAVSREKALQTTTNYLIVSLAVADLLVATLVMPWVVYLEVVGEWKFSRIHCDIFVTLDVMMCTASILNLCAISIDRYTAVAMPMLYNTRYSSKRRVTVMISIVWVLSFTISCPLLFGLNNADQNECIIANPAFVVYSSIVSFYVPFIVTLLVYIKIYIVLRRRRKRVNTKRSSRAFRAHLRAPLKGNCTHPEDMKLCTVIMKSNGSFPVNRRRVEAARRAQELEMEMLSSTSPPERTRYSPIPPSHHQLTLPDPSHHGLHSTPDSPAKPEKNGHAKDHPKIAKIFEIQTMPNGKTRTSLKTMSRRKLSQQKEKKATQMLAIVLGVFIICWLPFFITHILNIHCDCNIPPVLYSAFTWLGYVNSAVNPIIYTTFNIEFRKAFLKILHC
#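 Agonist mode: compounds alone added to overnight-plated D2 PathHunter cells for 90 min at 37 C, with 57 uM final dopamine (EC100) defining full response. Beta-arrestin recruitment detected by chemiluminescent reagent, read after 1 h at ambient temperature.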
# TRPML1 blocker – blocks the human TRPML1 channel; Q9GZU1; TRPML1-inducible cells, Ca2+ dye fluorescence, FDSS; stronger effect = lower value; inhibition of EC80 agonist-evoked calcium signal; activity change, negative = inhibition, % (concentration not given with the values); 0.02% of 390,000 active; AID 624415; in the data active means activity change below about -50%; inconclusive means about -30% to -50%; inactive means above about -30%;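 note: stimulus is agonist 54-4 at its EC80 concentration; % is set by controls: 0 for no effect and ±100 for the full control effect; compound concentration not given in the record; the text of the record puts the active cut at -80%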
# Target sequence (Q9GZU1 whole entry, looked up): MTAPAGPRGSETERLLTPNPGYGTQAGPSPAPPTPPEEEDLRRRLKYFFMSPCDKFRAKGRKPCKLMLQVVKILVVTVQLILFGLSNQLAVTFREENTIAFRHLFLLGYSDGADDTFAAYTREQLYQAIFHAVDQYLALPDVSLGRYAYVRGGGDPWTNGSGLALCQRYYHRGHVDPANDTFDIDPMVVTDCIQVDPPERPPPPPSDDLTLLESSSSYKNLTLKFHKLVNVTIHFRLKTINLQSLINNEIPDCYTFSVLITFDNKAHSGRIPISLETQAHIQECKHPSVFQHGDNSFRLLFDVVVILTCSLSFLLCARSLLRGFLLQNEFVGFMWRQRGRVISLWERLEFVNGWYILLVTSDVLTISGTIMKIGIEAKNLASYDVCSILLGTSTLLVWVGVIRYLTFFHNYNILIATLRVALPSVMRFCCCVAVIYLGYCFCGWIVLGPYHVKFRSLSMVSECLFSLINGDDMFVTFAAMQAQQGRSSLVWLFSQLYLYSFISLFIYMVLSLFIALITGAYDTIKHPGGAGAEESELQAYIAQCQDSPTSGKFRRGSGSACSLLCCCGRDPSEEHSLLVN
#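 Tet-induced TRPML1-DL cells loaded with Ca8 no-wash calcium dye were read kinetically on FDSS. Compound addition was followed by EC80 agonist 54-4 (4 uM final); inhibition was read over 110 s.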
# Six1-Eya2 inh – inhibitors of human Six1/Eya2 interaction; Q15475+O00167; AlphaScreen GST-Six1/His-Eya2 binding, biochemical; stronger effect = lower value; control for the full effect not named in the record; activity change, % (no concentration beside the values); 0.56% of 360,000 active; AID 651725; in the data active = activity change below about -65%; inconclusive = about -30% to -65%; inactive = above about -30%; note: % is set by controls: 0 for no effect and ±100 for the full control effect; compound concentration not given in the record
#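 AlphaScreen luminescence read after one hour at 37 °C in darkness. Pin-transferred compounds met GST-Six1 and His-Eya2 protein (5X stock 250 nM/500 nM) plus glutathione donor and Ni-chelate acceptor beads (5X, 50 ug/mL).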
# TRPML1 ag – activates the human TRPML1 channel | 0.12% of 410,000 active | TRPML1-expressing cells, Ca2+ dye fluorescence, FDSS; host cell line not named in the record; reference of the full effect not given here | activation, % (no concentration beside the values) | Q9GZU1; in the data active = activation above about 50%; inconclusive = about 30% to 50%; inactive = below about 30%; note: 0% is about no effect; the text of the record puts the active cut at 80%
#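 Kinetic FDSS Ca2+ read in Tet-induced TRPML1-DL cells (ABD Ca8 dye plus quencher, 45-90 min RT loading): baseline, then compound, then 110 s agonist window; EC80 agonist 54-4 at 4uM final added afterwards for a 110 s antagonist window.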
# PINK1 modulator – modulators of PINK1 expression | 0.2% of 410,000 active | PINK1 immunofluorescence, high-content cytometry, 24 h | Potency, µM (titrated, usually from 76.6 µM), without a hit: at the highest dose activation (PINK1 increase), usual class: activators; active = well fitted activation curve with a large enough effect; inconclusive = small, poorly fitted or top-dose-only effect; inactive = flat fitted curve, though single readings scatter; cell line not stated here;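 note: potency is the fitted concentration of half-maximal effect; % of control where 0% means no effect; nearly all actives have a fitted effect of over 65% in size; a mitochondrial uncoupler was the plate control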
#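 Fluorescence from anti-PINK1 antibody, together with nuclear and cell stains, was scanned on a laser-scanning cytometer. Before staining, stable-line cells were incubated 24 hours with compounds at 5 concentrations; primary antibody 12 h at 10 degrees C.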
# * hit, by the source's call; ? = inconclusive; · = no result given; & = joins results of further samples; [ ] = dose if it differs, or a comment.
SMILES,CtBP-E1A inh,D2 ag,TRPML1 blocker,Six1-Eya2 inh,TRPML1 ag,PINK1 modulator
Cc1[nH]nc(N)c1-c1ccc(Cl)cc1,3.8,-4.0,-5.9,7.8,-0.9,-0.3%
COc1ccc(C(c2nnnn2C(C)C)N2CCN(C(=O)c3ccco3)CC2)cc1 (stereo unspecified),2.0,-6.3,-4.2,-4.0,0.0,3.5%
FC(F)(F)c1nc2ccccc2nc1N/N=C/c1ccc(Cl)cc1,?,-2.3,9.3,?,1.9,10.8%
Cc1nc(CC(=O)Nc2cc(Cl)ccc2C)cs1,·,·,-0.5,·,0.2,-0.4%
O=C(NCC1CCCN1S(=O)(=O)c1cccs1)c1cccc([N+](=O)[O-])c1 (stereo unspecified),2.7,-3.4,-1.6,-1.3,-1.0,0.6%
Cc1ccc(CS(=O)(=O)Cc2ccc(C(=O)NCC3CCCO3)o2)cc1 (stereo unspecified),-0.8,0.9,25.4,-1.9,0.7,1.4%[38.3 µM]
O=C(NCCc1ccccc1Cl)c1sc2ncccc2c1-n1cccc1,·,·,80.6,·,2.3,4.4%
Cc1ccc2nc(-c3cccs3)c(Nc3c(C)cccc3C)n2c1,·,·,36.6,·,2.6,-1.3%
COc1ccccc1C1C(C(=O)N2CCCCC2)=C(C)Nc2nc3ccccc3n21 (stereo unspecified),·,·,21.3,·,-0.3,0.9%
CCOC(=O)C1C(=O)NC(c2ccccc2)=NC1c1ccc(Cl)cc1 (stereo unspecified),8.8,-3.2,13.0,3.4,0.0,-0.3%
Cc1cc2oc(C(=O)N(Cc3cccs3)C3CCS(=O)(=O)C3)cc(=O)c2cc1Cl (stereo unspecified),-2.9,-2.9,-0.4,0.0,0.5,-1.1%
COc1ccc2c(C(=O)CN3CCSCC3)c[nH]c2c1,0.2,-4.1,-2.4,0.9,-0.1,0.3%
Cn1cccc([N+](=O)[O-])c1=O,0.0,-4.5,?,20.8,-0.5,-0.5%
CCN(CC)c1ccc(/C=N/NC(=O)CCC(=O)NCc2ccccc2)c(O)c1,?,2.7,1.1,-27.3,2.5,0.5%
Cc1nnc(SCC(=O)Nc2ccccc2C(=O)NC2CC2)s1,8.7,-5.2,-2.3,2.6,0.1,4.7%

# Single records, as listed above. Screens in order: CtBP-E1A inh, D2 ag, TRPML1 blocker, Six1-Eya2 inh, TRPML1 ag, PINK1 modulator
# Results for COc1ccccc1C1C(C(=O)N2CCCCC2)=C(C)Nc2nc3ccccc3n21 (stereo unspecified) = ·, ·, 21.3, ·, -0.3, 0.9%
# Results for COc1ccc2c(C(=O)CN3CCSCC3)c[nH]c2c1 = 0.2, -4.1, -2.4, 0.9, -0.1, 0.3%
# Results for CCN(CC)c1ccc(/C=N/NC(=O)CCC(=O)NCc2ccccc2)c(O)c1 = ?, 2.7, 1.1, -27.3, 2.5, 0.5%
# Results for Cc1[nH]nc(N)c1-c1ccc(Cl)cc1 = 3.8, -4.0, -5.9, 7.8, -0.9, -0.3%

# The listing continues:
SMILES,CtBP-E1A inh,D2 ag,TRPML1 blocker,Six1-Eya2 inh,TRPML1 ag,PINK1 modulator
O=C(NC(=O)N1CCSCC1)c1c(Cl)cccc1Cl,13.9,-0.6,29.5,3.0,11.0,-0.1%
CC(/C=N/NC(=O)Cn1cnc2c1c(=O)n(C)c(=O)n2C)=C\c1ccco1,2.6,2.5,-14.2,-8.3,-0.2,-0.3%
Cc1ccc(OCCNC(=O)C2CCCCC2)cc1,3.9,-1.9,-9.8,2.2,1.0,7.9%
COC(=O)CSc1nccc(C)n1,·,-7.8,9.3,-1.4,-0.1,0.6%
CS(=O)(=O)c1ccc2nc(NC(=O)Oc3ccccc3)sc2c1,4.5,2.5,-8.2,0.0,0.9,1.3%
O=C(CSc1nnc(-c2ccco2)o1)N1CCCCC1,0.0,-2.5,-11.2,-10.7,0.7,-0.3%
COc1ccccc1NC(=O)N1CCCC1C(=O)Nc1nnc(C(C)C)s1 (stereo unspecified),6.4,-3.9,28.8,-0.7,0.0,-4.0%
Cc1ccc(CNC(=O)c2ccc3c(=O)n(CCCN4CCCC4=O)c(=S)[nH]c3c2)cc1,-0.6,0.4,-8.8,15.5,0.0,·
CS(=O)(=O)N1N=C(c2ccco2)CC1c1ccc(Cl)cc1Cl (stereo unspecified),4.8,-1.1,-14.3,-1.7,1.7,-0.1%
Oc1ccc(C2N=C(c3ccccc3)NC(c3ccccc3)=N2)cc1,0.0,-2.6,-18.7,-4.7,2.8,15.5%
O=C(NCCc1ccccc1)C(c1cccs1)N(C(=O)c1csnn1)C1CC1 (stereo unspecified),-18.1,-2.4,-9.5,-9.6,0.4,1.0%
CC(=O)N1c2ccc([N+](=O)[O-])cc2NC(=O)CC1C (stereo unspecified),-5.2,-1.5,-0.8,6.0,0.0,-0.1%
CN(c1cccc(NC(=O)c2ccc(Cl)c(S(=O)(=O)Nc3ccccc3)c2)c1)S(C)(=O)=O,-11.4,5.9,47.1,-5.5,1.3,5.7%[38.3 µM]
CCOC(=O)CON1C(=O)C(=O)N(OCC(=O)OCC)[C@H]2CCCC[C@H]21,6.0,-1.8,5.9,-2.7,-0.9,0.3%
O=C(N/N=C\c1cn[nH]c1-c1ccccc1)c1ccc([N+](=O)[O-])cc1,-5.6,3.3,38.8,-14.0,1.4,-3.0%
O=C(N/N=C/c1ccccc1F)C(=O)N1CCCCCC1,4.4,3.1,-8.1,-1.3,-0.7,0.8%
Cc1ccccc1CC(=O)NC1CCCCCC1,0.5,-0.7,-54.4*,10.7,1.2,2.9%
Cc1cccc(OCC(=O)Nc2c3c(nn2C(C)(C)C)CS(=O)(=O)C3)c1,8.7,3.6,1.7,4.0,-0.6,0.5%
COc1cccc2c(=O)c(SC(F)(F)C(F)C(F)(F)F)c(C)[nH]c12 (stereo unspecified),-8.2,-1.7,-1.6,-1.7,-0.2,8.2%
O=C(CSc1nnc(-c2ccccc2)c(-c2ccccc2)n1)N1CCc2ccccc21,-1.2,0.5,-16.3,-2.5,3.7,-2.0%[38.3 µM]
COc1ccc(CNc2oc(-c3cccc4ccccc34)nc2P(=O)(OC)OC)cc1,·,-0.4,15.5,12.8,2.6,1.0%
CCOC(=O)CSc1nnc(NC(=O)CN2CCN(C=O)CC2)s1,5.4,4.0,-1.1,3.5,0.4,0.3%
COc1cccc(NC(=O)CSCC(=O)O)c1,-10.4,-0.7,-10.8,2.2,0.6,-4.1%
COc1ccccc1CNC(=O)c1cc(-c2ccccc2)n(Cc2cc(C)no2)n1,-18.2,-1.5,-3.4,2.0,3.2,-0.4%
NCCCC[C@H]1CNC(=S)N1CCc1cc(C(F)(F)F)cc(C(F)(F)F)c1,-0.6,-0.7,25.1,2.3,0.0,1.6%
CCOC(=O)COn1c(=O)c(-c2ccco2)[n+]([O-])c2ccccc21,-0.9,0.1,16.9,-7.8,0.6,-1.0%
O=C(C1CCN(c2ncnc3c2nc2n3CCCCC2)CC1)N1CCN(c2ccccc2F)CC1,·,6.2,10.1&18.8,-6.2,1.5&2.4,1.8%&10.8%
O=C(NCCNC(=O)c1cccnc1)c1cccnc1,1.8,-3.6,·,2.4,-0.7,-0.1%
CCN(C(=O)C12CC3CC(CC(C3)C1)C2)C1CCS(=O)(=O)C1 (stereo unspecified),10.2,9.2,11.6,-8.9,1.1,-0.7%
Cc1cc([N+](=O)[O-])ccc1NC(=O)COc1nsnc1N1CCOCC1,-5.0,-0.7,-6.1,-3.0,-0.1,-0.3%
CNC(=O)c1c(NC(=O)c2cccc(N3C(=O)CCC3=O)c2)sc2c1CCCC2,5.6,-0.9,-15.7,2.6,0.9,?
CCOC(=O)c1cc2c(C)nn(-c3ccccc3)c2s1,4.5,-3.6,-14.2,7.9,-0.3,12.4%
Cc1cc(SCC(=O)c2ccccc2)nc(=O)[nH]1,-14.7,-6.0,6.6,-3.7,0.0,-0.5%
Cc1cc(Br)cn2c(Cc3ccsc3)c(C3CCCCC3)nc12,-7.9,-5.4,32.7,-11.7,3.3,1.6%
Cc1ccc(N(Cc2ccccc2)C(=O)c2cc(S(=O)(=O)N3CCOCC3)ccc2N2CCCC2)cc1,3.6,-6.2,8.4,-3.1,1.2,-1.1%
CN(C)S(=O)(=O)c1cccc(COC(=O)CNC(=O)c2ccc(Br)o2)c1,9.1,0.0,-8.5,14.2,0.6,-2.0%
Cc1cnc(C(=O)Nc2ccccc2-c2nnn(CC(=O)NC3CCCC3)n2)cn1,6.9,2.2,-8.5,5.7,0.0,1.9%
COc1cc(-c2cnc3c(NC=O)cc(-c4cccnc4)cn23)cc(OC)c1OC,?,5.0,·,?,-0.7,5.2%
Cc1ccc(S(=O)(=O)Nc2ccc3nc(-c4cccc(Cl)c4)oc3c2)cc1,·,·,10.7,·,2.0,1.7%
COc1ccc(/C=N/n2cnnc2)cc1Br,-3.1,-1.2,9.1,-0.2,0.8,-1.9%
Cc1c(NC(=O)C(C)Sc2nnc(-c3ccccc3)o2)c(=O)n(-c2ccccc2)n1C (stereo unspecified),2.3,-3.3,-12.7,0.6,0.4,-1.9%
CCN(CC)C(=O)c1[nH]cnc1C(=O)Nc1cccc(Cl)c1,0.9,-2.1,16.2,2.0,1.7,2.2%
COc1cc(F)ccc1S(=O)(=O)N1CCN(Cc2ccccc2)CC1,1.6,2.7,-5.9,-2.9,0.2,3.6%
CCN1CCN(C(=O)c2ccc(Cl)c(S(=O)(=O)N(C)c3ccccc3)c2)CC1,2.5,-0.2,-13.8,2.8,0.1,0.9%
O=C(CN1C(=O)NC(CCc2ccccc2)C1=O)Nc1ccccc1C(F)(F)F (stereo unspecified),0.5,-0.5,9.0,2.2,0.7,1.0%
O=c1cc(N2CCCCC2)c(-c2ccccc2)nn1Cc1c(Cl)cccc1Cl,-12.1,-3.9,-10.4,-19.7,19.7,-2.2%
Cc1ccccc1NS(=O)(=O)c1cc(S(C)(=O)=O)ccc1C,-1.9,-2.8,-0.8,1.2,0.8,-1.7%
COc1ccc(C(=O)N/N=C/c2ccccc2OC(=O)c2ccccc2)cc1,?,1.3,55.0,-25.5,4.5,3.8%
NC(N)=N/N=C/c1ccc(OCc2ccc(Cl)cc2)cc1,-7.8,0.8,-0.3,-3.0,0.8,-3.8%[38.3 µM]
C/C(CC(=O)NC12CC3CC(CC(C3)C1)C2)=N\NC(=O)Cc1cccs1,6.5,-0.2,10.5,7.0,0.0,3.0%
NNC(=O)c1nnn(-c2nonc2N)c1-c1cccs1,-2.7,2.6,10.6,3.8,1.7,-0.9%
COc1ccc(C(=O)Nc2cccc(S(C)(=O)=O)c2)cc1OC,4.3,2.2,-1.1,-2.8,1.6,2.2%
COCCN(CC(=O)NCc1ccc(F)cc1)C(=O)CCC(=O)Nc1ccccn1,2.3,0.2,-8.3,8.8,-0.1,-4.1%
Cc1ccc(NC(=O)CNCc2ccccc2)cc1Br,1.1,-5.0,-12.4,4.9,-0.4,4.2%
COc1cccc(C(=O)NNC(=O)c2ccc3ccccc3c2)c1,8.8,-7.7,14.7,4.5,0.2,6.1%

# From PubChem BioAssay
